# TRPML1 inh – qHTS for Inhibitors of the Human Mucolipin Transient Receptor Potential 1 (TRPML1); TRPML1-inducible cells, Ca2+ dye fluorescence, FDSS; stronger effect = lower value; inhibition of EC80 agonist-evoked calcium signal; activity change, negative = inhibition, % (concentration not given with the values); actives 0.02% (n = 390,000); in the data active means activity change below about -50%; inconclusive means about -30% to -50%; inactive means above about -30%;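 further: stimulus is agonist 54-4 at its EC80 concentration; on the % scale 0 is the no-effect control and ±100 the full control effect; compound concentration not given in the record; the text of the record puts the active cut at -80%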
# Target sequence (Q9GZU1 whole entry, looked up): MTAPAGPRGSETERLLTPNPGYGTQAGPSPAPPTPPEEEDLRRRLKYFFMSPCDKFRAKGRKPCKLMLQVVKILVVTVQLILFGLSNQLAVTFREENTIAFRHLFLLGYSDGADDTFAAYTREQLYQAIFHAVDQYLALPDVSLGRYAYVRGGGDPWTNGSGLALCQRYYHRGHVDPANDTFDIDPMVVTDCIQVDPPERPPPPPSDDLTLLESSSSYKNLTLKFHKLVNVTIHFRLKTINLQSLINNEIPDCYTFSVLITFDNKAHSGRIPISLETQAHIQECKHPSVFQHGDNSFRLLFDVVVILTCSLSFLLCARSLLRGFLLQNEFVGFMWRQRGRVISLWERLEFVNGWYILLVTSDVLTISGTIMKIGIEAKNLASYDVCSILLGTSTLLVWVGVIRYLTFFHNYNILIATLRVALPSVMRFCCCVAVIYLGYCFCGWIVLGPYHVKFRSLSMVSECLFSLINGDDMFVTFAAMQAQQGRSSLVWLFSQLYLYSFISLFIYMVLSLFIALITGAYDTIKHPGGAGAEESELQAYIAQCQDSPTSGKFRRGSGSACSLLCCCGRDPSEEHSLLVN
#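 Calcium fluorescence in TRPML1-DL cells induced overnight with Tet: a 110 s read after compound pin addition, then a 110 s antagonist read after challenge with 54-4 at 4 uM final (EC80).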
# gsp antag – qHTS for Antagonists of gsp, the Etiologic Mutation Responsible for Fibrous Dysplasia/McCune-Albright Syndrome: qHTS | gsp-mutant cells, cAMP HTRF, 30 min; control for the full effect not named in the record | Potency, µM (series often up to 76.9 µM), for the others: at the top dose activity change, negative = inhibition, most hits filed as inhibitors | actives 0.4% (n = 340,000); active = falling curve of any shape with a large fitted effect; inconclusive = falling curve, mostly with a smaller effect; inactive = flat or rising curve; cell line not stated here;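 further: intracellular cAMP measured with PDE inhibitor Ro 20-1724 present during compound exposure; potency means the concentration at half of the fitted maximal effect; on the % scale 0 is the no-effect control and ±100 the full control effect; nearly all actives have a fitted effect of over 65% in size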
#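 Measurement of cellular cAMP by homogeneous time-resolved fluorescence following a 30 min compound exposure at 37C. The PDE inhibitor […] was present throughout; the assay buffer was DPBS with 0.05% BSA and 0.005% Tween 20.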
# TRPV1 PAM – HTS Assay for Compounds that Act as Potentiators of the Vanilloid Receptor 1. TRPV1-expressing cells, Fluo-8 calcium influx, capsaicin EC20 potentiation; host cell line not named in the record; control for the full effect not named in the record. actives 0.02% (n = 320,000). potentiation, % at 8.33 µM. AID 540277, 2011. Transient receptor potential cation channel subfamily V member 1 (Homo sapiens), Q8NER1; active means potentiation above 80%; inconclusive means 30% to 80%; inactive means below 30%; further: 0% is about no effect
#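 Fluo-8 calcium influx in TRPV1-expressing cells, kinetic read (ex 480/em 520 nm). Compound added and read 3 min for agonist activity, followed by capsaicin at EC20 final and 2 min further read for enhancement.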
# Sfp PPTase inh – qHTS Assay for Inhibitors of Bacillus subtilis Sfp phosphopantetheinyl transferase (PPTase); Potency, µM, without a hit: max response, negative = inhibition, usual class: inhibitors; AID 1490, 2009; 4'-phosphopantetheinyl transferase ffp (Bacillus subtilis), Q9F4F7; Biochemical Sfp PPTase activity, qHTS; actives 3.5% (n = 310,000); active means well fitted inhibition curve with a large enough effect; inconclusive means small, poorly fitted or top-dose-only effect, or another doubt; inactive means no such curve, though single readings can be large or run the other way;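 further: the enzyme is Sfp with the accession as filed and its product quenches rhodamine fluorescence; potency means the concentration at half of the fitted maximal effect; 0% = enzyme reaction without inhibitor and -100% = no enzyme wells; top concentration of the series not given in the record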
#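 Fluorescence-quenching assay with 15 nM Sfp, 5 uM rhodamine-CoA and 12.5 uM BHQ-2-labelled ybbR peptide in pH 7.6 Hepes/MgCl2 buffer. Enzyme was pre-incubated with compound for 15 min at room temperature. Rate was taken from the 30-min fluorescence change (525/598 nm).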
# Menin-MLL FL inh – qHTS Assay for Inhibitors Targeting the Menin-MLL Interaction in MLL Related Leukemias: Competition With Fluorescein Labeled MLL-derived Peptide; AID 1766, 2009; FP activity change, % at 61.4 µM; Fluorescence polarization, fluorescein-MLL peptide displacement from menin; 290,000 tested, under 10 active; inconclusive = falling polarisation curve, or a change in total fluorescence; inactive = total fluorescence flat and polarisation flat or rising; no compound was filed as active; the % refers to the polarisation; negative = inhibition;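 further: % of control where 0% means no effect; inhibitors lower the polarisation; unlabelled MLL peptide was the positive control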
# ClpP mod – qHTS Assay for Activators of ClpP; ATP-dependent Clp protease proteolytic subunit (Bacillus subtilis (strain 168)), P80244; purified B. subtilis ClpP, FRET peptide cleavage, 20 min; Potency, µM (series often up to 57.5 µM), without a hit: at the highest dose activity change, negative = active; actives 1.9% (n = 340,000); active = well fitted falling curve with a large enough effect; inconclusive = small, poorly fitted or top-dose-only effect; inactive = no such curve, though single readings can be large or run the other way; further: potency means the concentration at half of the fitted maximal effect; the source files actives as falling curves though it sought activators and does not explain the sign; nearly all actives have a fitted effect of over 65% in size; many hits overshoot -100%
# Target sequence (P80244 whole entry, looked up): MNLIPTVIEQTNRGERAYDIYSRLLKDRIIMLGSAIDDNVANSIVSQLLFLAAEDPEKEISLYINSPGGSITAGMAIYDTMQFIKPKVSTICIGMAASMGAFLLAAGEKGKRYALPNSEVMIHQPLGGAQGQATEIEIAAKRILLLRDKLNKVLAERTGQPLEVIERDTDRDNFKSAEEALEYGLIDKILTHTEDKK
#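 Buffer: 100 mM Tris/HCl pH8, 100 mM KCl, 0.05% low protease BSA, 2.5% glycerol, 0.01% Tween-20. ClpP 10 microg/mL final; 20 min RT; delta FRET normalized to ADEP and DMSO controls.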
# gsp ag – qHTS for Agonist of gsp, the Etiologic Mutation Responsible for Fibrous Dysplasia/McCune-Albright Syndrome: qHTS; Potency, µM (highest dose often 76.9 µM), for the others: top-dose activation (cAMP increase), actives largely listed as activators; gsp mutant cells, cAMP HTRF, 30 min; control for the full effect not named in the record; actives 0.13% (n = 340,000); active = well fitted activation curve with a large enough effect; inconclusive = small, poorly fitted or top-dose-only effect, or another doubt; inactive = no such curve, though single readings can be large or run the other way; cell line not stated here;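 further: phosphodiesterase inhibitor Ro 20-1724 added with compounds to block cAMP breakdown; potency means the concentration at half of the fitted maximal effect; nearly all actives have a fitted effect of over 60% in size; about a fifth of the inactives were tested at one dose only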
#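 Cells stably selected in G418 were plated at 2000/well, grown 16-24 hr, then given compounds in DMSO with the PDE inhibitor […] (300 uM solution added) for 30 min at 37C; cAMP was read by HTRF.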
# An asterisk follows results filed as active; ? = inconclusive; . = no result given; & = joins results of further samples; [ ] = another dose, or the depositor's remark. Compounds as they come; 4.9% or so of the library scored in one or more.
canonical_smiles	gsp ag	Menin-MLL FL inh	TRPV1 PAM	ClpP mod	gsp antag	Sfp PPTase inh	TRPML1 inh
CC(C)CN(CC(C)C)c1nnc(N)s1	-13.8%	2.6	18.7	0.1%	-5.0%	-2.1%	6.6
CCOC(=O)c1ccc2c(c1)nc(SCC(=O)NC(C)C)n2CC	1.0%	1.2	5.9	-3.8%	-4.7%	3.1%	6.8
Cc1ccc(NC(=O)N2CCCC2C(=O)Nc2c(C)cc(C)cc2C)cc1 (stereo not given)	-4.1%	.	-2.3	.	10.0%	16.7%	-7.6
Cc1c([N+](=O)[O-])c([N+](=O)[O-])nn1CC(=O)NCCc1ccccc1	4.6%	6.0	-4.9	-2.0%	4.4%	-19.3%	-14.5
CC(C)c1ccc(C2c3[nH]c4ccccc4c3C[C@H]3C(=O)N(c4ccccc4C(=O)N4CCC(C(=O)O)CC4)C(=O)N23)cc1 (stereo not given in full)	.	2.8	10.1	1.4%	-6.8%	10.1%	.
CCCCNC(=O)C1(N2C(=O)c3ccccc3C2=O)CCCC1	-7.2%[15.4 µM]	.	.	-2.8%	2.7%	.	7.7
CCC(C)NC(=O)N[C@@H](Cc1ccccc1)C(=O)O (stereo not given in full)	-38.9%	3.3	7.6	0.9%	11.7%	9.9%	3.9
CCCn1c(=O)c2ccccc2n2c(SCC(=O)c3cc(C)n(CC4CCCO4)c3C)nnc12 (stereo not given)	.	0.0	9.4	.	.	-7.5%	.
O=C(CN1C(=O)CSCC1=O)Nc1ccc2c(c1)OCO2	-49.3%[inhibitor]	-2.0	11.9	1.7%	0.9%	4.5%	6.2
O=c1cc(/C=C/c2ccccc2)oc2ccccc12	-2.0%	-0.1	-11.1	?	-15.4%	?	16.8
CN(N)c1nc(N2CCCC2)nc(N2CCCC2)n1	-3.7%[15.4 µM]	.	.	31.6µM*	10.8%	.	2.8
CC(=O)Nc1c(O)nc(SCC(=O)Nc2nnc(SCc3ccccc3)s2)[nH]c1=O	-10.9%	8.1	6.0	.	-4.0%	35.5µM*	-4.1
NC(=O)C1CC(=O)N(c2ccc(OCC(=O)Nc3ccc(Cl)cc3)cc2)C1 (stereo not given)	-1.7%[15.4 µM]	.	5.2	.	4.8%	10.7%	-1.7
Cc1ccc([N+](=O)[O-])cc1S(=O)(=O)Nc1ccc(C(=O)NCC2CCCO2)cc1 (stereo not given)	12.3%	.	-0.7	-0.1%	-11.2%	.	-14.3
O=C(NCCC1CCCCN1S(=O)(=O)c1ccc(F)cc1)C(=O)NCc1cccnc1 (stereo not given)	-2.1%[15.4 µM]	.	-5.2	1.5%	0.0%	.	-14.6

# Going on with the list:
canonical_smiles	gsp ag	Menin-MLL FL inh	TRPV1 PAM	ClpP mod	gsp antag	Sfp PPTase inh	TRPML1 inh
CCCn1c(-c2ccc(F)cc2)cnc1SCC(=O)O	6.9%	1.5	19.5	-0.8%	0.9%	14.9%	-14.8
Cc1ccc(N/C=C2\C(=O)N(c3ccc(F)cc3F)C(c3cccnc3)S2(=O)=O)cc1 (stereo not given)	-10.2%[15.4 µM]	-3.0	5.9	.	-14.5%	10.6%	3.7
CC(NCC(=O)Nc1ccccc1C(=O)NC1CC1)c1cccc(C(F)(F)F)c1 (stereo not given)	-16.0%	.	-10.9	1.0%	-6.0%	.	-2.0
Cc1ccc(-c2nc(NC(=O)CSc3cc(C)c4ccccc4n3)ns2)cc1	5.9%	2.3	-17.9	0.1%&0.7%	-6.7%	1.5%	11.4&29.8
CCOC(=O)C(NC(C)=O)(Nc1ccc(S(=O)(=O)Nc2cc(C)on2)cc1)C(F)(F)F (stereo not given)	22.9%	2.1	18.2	-0.9%	13.7%	15.6%	-11.8
O=C(CSc1ncn[nH]1)Nc1ccccc1C(=O)O	-1.8%	-1.5	-1.6	-4.7%	11.1%	13.3%	-1.6
C[C@H](NC(=O)[C@H]1N2C(=O)c3ccccc3C2SC1(C)C)C(=O)N1CCC[C@H]1CO (stereo not given in full)	.	4.5	13.5	-0.4%	2.4%	5.6%	.
CC(C)(C)OC(=O)N(Cc1ccccc1)Cc1ccccc1OCc1ccc(NC(=O)C2CCC2)cc1	.	.	.	1.6%	-13.0%	.	24.3
COC(=O)Cc1ccc2sc(-c3ccccc3)nc2c1	10.1%	-0.7	-15.6	28.2µM*	-9.8%	?	30.3
COc1ccc(/C=C(\NC(=O)c2ccccc2)C(=O)N/N=C/c2ccncc2)cc1	-20.5%	2.0	.	0.3%	2.3%	14.7%	2.2
CC(=O)Nc1ccc(N/C=C/C(=O)c2ccc(C)o2)cc1	9.3%	?	-0.9	-2.8%	-12.9%	13.7%	5.0
CSc1cc(C)c(OCC(=O)Nc2ccc(NC(C)=O)cc2)c(C)c1	-40.2%	-5.4	-4.0	-3.3%	3.0%	19.1%	-9.5
CC1CCCN(C(=S)SCC(=O)O)C1 (stereo not given)	3.0%	-1.2	-1.9	0.7%	-4.3%	13.6%	-21.4
CC(OC(=O)c1cc(S(=O)(=O)N(C)C)ccc1N1CCCC1)C(=O)NCc1ccccc1 (stereo not given)	7.7%[15.4 µM]	.	7.2	0.8%	8.2%	4.9%	2.4
CNC(=O)Nc1ccc(Cn2cc(C(F)(F)F)ccc2=O)cc1	-9.0%[15.4 µM]	3.2	12.1	.	1.7%	-8.8%	-7.3

# Following part.
canonical_smiles	gsp ag	Menin-MLL FL inh	TRPV1 PAM	ClpP mod	gsp antag	Sfp PPTase inh	TRPML1 inh
CC(C)NS(=O)(=O)c1ccc(OCC(=O)NCc2cccnc2)cc1	-0.9%	3.2	3.5	-1.4%	0.9%	13.0%	5.8
CN(C(=O)CN1CCN(c2ccccc2F)CC1)C1CCCc2ccccc21 (stereo not given)	-16.0%	7.7	1.8	.	-4.7%	7.6%	0.0
O=C(CSc1nc2ccccc2o1)c1ccc2c(c1)OCCO2	-2.1%	2.6	-3.4	0.5%	-8.1%	15.1%	60.3
CC(=O)N1CCN(CCN2C(C)=CC(=C(C#N)C#N)C=C2C)CC1	-3.4%[15.4 µM]	2.9	-6.7	-3.5%	5.5%	18.6%	10.5
CCC1(c2ccccc2)SCC(c2ccccc2)=NC1=O (stereo not given)	2.9%	.	.	.	-15.5%	.	84.6
CNC(=O)COc1ccc(Nc2nnc(C)c3ccccc23)cc1	4.7%[15.4 µM]	1.8	5.7	-5.4%	-18.9%	1.5%	-16.4
CC(C)CCNC(=O)c1csc2c1CCCCC2	-16.3%[15.4 µM]	-6.5	-11.1	.	-0.3%	5.7%	-16.3
CC(C)Cn1c(N)c(C(=O)COC(=O)c2nccnc2N)c(=O)n(C)c1=O	15.5%	.	-14.0	4.0%	0.4%	.	-11.4
COc1ccc(C(C)=O)cc1COc1ccc(F)cc1	-27.0%	-0.8	-18.7	0.4%	-4.3%	-1.8%	30.8
Cc1csc(-c2cccnc2)n1	-10.6%[15.4 µM]	0.3	-1.1	-6.5%	3.6%	-7.7%	-9.1
CCOC(=O)Nc1sc(C(=O)N(C)C)c(C)c1C(=O)OCC	18.5%	-3.5	-8.9	-2.9%	-5.3%	13.4%	-2.8
O=C(CN1C(=O)NC2(CCc3ccccc3C2)C1=O)Nc1ccc(Cl)cc1F (stereo not given)	-4.2%[15.4 µM]	-1.9	8.4	-1.2%	5.5%	17.1%	3.3
CCOc1ccccc1CNC(=O)CN1C(=O)CSc2ccc(S(=O)(=O)N3CCOCC3)cc21	-6.5%	.	-8.8	1.0%&-2.6%	-14.9%	7.4%	-17.2&-9.7
CC(=O)Nc1ccc(S(=O)(=O)Nc2cccc(NC(=O)c3ccco3)c2)cc1	-41.5%[inhibitor]	0.1	-1.5	.	-0.1%	1.0%	7.4
CCN(C(=O)COC(=O)c1cccc(S(=O)(=O)N(C)C)c1)c1c(N)n(Cc2ccccc2)c(=O)[nH]c1=O	-16.8%	.	.	2.7%	5.1%	.	-9.2

# The list continues:
canonical_smiles	gsp ag	Menin-MLL FL inh	TRPV1 PAM	ClpP mod	gsp antag	Sfp PPTase inh	TRPML1 inh
CC(=O)c1ccc(OCc2cc(C(=O)NC(C)Cc3ccccn3)no2)cc1 (stereo not given)	14.6%	0.9	4.1	-0.2%	0.4%	18.9%	8.2
CCOc1ccc(Oc2ccc(S(=O)(=O)N3CCOCC3)cc2NC(=O)C2=COCCO2)cc1	-89.5%[inhibitor]	.	10.7	-6.9%	-4.1%	.	0.9
Cc1cccc(NC(=O)CN(C)S(=O)(=O)c2cccc3nsnc23)c1C	?	1.0	-8.0	-0.5%	-14.4%	-2.8%	-8.7
CN(C)c1cc(NC(=O)CNC(C)(C)CC(C)(C)C)c2ccccc2n1	-22.1%	1.0	0.9	.	-3.8%	-29.5%	-4.4
CSc1cccc(NC(=O)CSc2ncccc2C(=O)Oc2cccc([N+](=O)[O-])c2)c1	-60.9%[inhibitor]	0.2	0.8	-1.1%	-6.2%	6.9%	-7.2
O=C(O)CC(Cc1ccc(Br)cc1)C(=O)O (stereo not given)	-33.8%[inhibitor]	5.2	-11.0	-2.3%	-3.7%	11.0%	-0.6
O=C(COC(=O)c1ccc(S(=O)(=O)N2CCCC2)cc1)NCc1cccs1	-37.8%	1.8	-12.3	.	-1.6%	6.6%	69.3
CCOc1c(C)cc(S(=O)(=O)NCc2ccccn2)c(C)c1C	3.4%[15.4 µM]	-1.2	-15.1	-1.1%	-3.0%	17.2%	-15.3
CCCCCC(=O)NNC(=S)NC(C)=O	-7.7%[15.4 µM]	0.2	-1.0	.	15.4%	79.4µM*	8.7
CCOc1ccccc1NS(=O)(=O)c1c(C)[nH]c(C)c1C(=O)N1CCCCC1	26.6%	0.0	11.6	-0.6%	-3.2%	9.0%	-9.6
